Rce1 inh – inhibitors of yeast Ras-converting enzyme | Q03530 | yeast membranes, quenched prenylated peptide cleavage fluorescence | calls only | 290,000 tested, 0.27% active | AID 2563;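 active means fall in fluorescence gain of 50% or more versus controls, with final raw signal at or below 3038400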;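 further: plate controls were neutral control wells for no effect and wells lacking membranes for full effect; tested at 10 µM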
Target sequence (Q03530 whole entry, looked up): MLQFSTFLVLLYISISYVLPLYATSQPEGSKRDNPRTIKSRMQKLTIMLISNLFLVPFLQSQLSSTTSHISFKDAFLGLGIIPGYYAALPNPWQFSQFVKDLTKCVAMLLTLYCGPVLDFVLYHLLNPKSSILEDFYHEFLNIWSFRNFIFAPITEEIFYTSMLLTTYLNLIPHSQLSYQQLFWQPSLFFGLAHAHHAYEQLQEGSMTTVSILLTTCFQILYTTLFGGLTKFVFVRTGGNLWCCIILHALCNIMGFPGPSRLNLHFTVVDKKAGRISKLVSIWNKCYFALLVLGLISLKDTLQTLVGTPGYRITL
MT1-MMP act inh – blocks activation of human MT1-MMP; P50281; HT1080 RFP-PRO-GFP cells, GFP/RFP ratio fluorescence, overnight; percent of plate control window, DMSO zero; GFP/RFP ratio change, % at 20 µM; 360,000 tested, 0.061% active; AID 651647;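 active means GFP/RFP ratio change of at least 30% with cell ATP level not reduced by more than half and red fluorescence within 50% of control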; further: strong numbers were not always called active
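Test system: HT1080 cells expressing an RFP-PRO-GFP fluorescent reporter construct / Compound dosing: single-point 20 µM compound, 1% DMSO / Schedule: cells overnight before dosing, compound overnight, 37 °C, 5% CO2 / Evaluation: GFP/RFP fluorescence ratio / Control set: DMSO and RFP-L50D-GFP cell wells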
eIF4H FP inh – inhibitors of RNA binding by human eIF4H | 290,000 tested, 0.94% active | Q15056 | AID 2012 | inhibition, % at 35 µM | eIF4H fluorescence polarization binding assay;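 active means 50% or more with normal probe brightness, or confirmed in later tests; about a fifth of its hits are not listed in these tables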;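 further: calls also rest on retests at 20 µM and on dose response follow-up; 0% = protein and probe with vehicle and 100% = probe without protein; strong numbers were not always called active; many hits fall short of the cut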
PABP polyA inh – blocks human PABP binding to poly(A) RNA | fluorescence polarization | inhibition, % at 35 µM | 290,000 tested, 1% active | AID 2014;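 active means 50% or more with normal probe brightness, or confirmed in later tests; about a fifth of its hits are not listed in these tables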;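 further: calls also rest on retests at 20 µM and on dose response follow-up; controls were probe without protein and protein plus probe with vehicle; some compounds called inactive have numbers as strong as hits; many hits fall short of the cut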
HIV Env fusion – blocks HIV Env-driven cell-cell fusion; HeLa-JRFL Env/CEM21 cell fusion, luciferase; inhibition, % at 12.3 µM; 360,000 tested, 1.1% active;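 active means mean replicate inhibition score of at least 50 and every replicate individually at or above 50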;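 further: 0% = plate neutral controls and 100% = maraviroc near 300 nM; one replicate is shown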
CSC inhib – cancer stem cell inhibition. cancer stem cell-like cells viability, luminescence. inhibition, % at 7.5 µM. 300,000 tested, 1.1% active;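 active means mean at 75% or more and at least half the replicates too; tested in HMLE shEcad cells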;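 further: 0% = median of negative and 100% = median of positive control wells; the first replicate is given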
Yeast UUG start – modulators of start codon recognition fidelity in yeast. S. cerevisiae UUG-firefly luciferase reporter, luminescence/redox ratio. activity score, % at 18.7 µM. 350,000 tested, 0.13% active. AID 602363;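 active means replicate mean at a twofold rise or more, about +100% in these data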;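 further: firefly luciferase made from a UUG start codon reports start codon fidelity; reporter light over untreated wells divided by growth signal over untreated wells; some hits fall short of that in this replicate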
eIF4H FP inh retest – recorded beside eIF4H FP inh, whose call it bears; inhibition, %; compound at 20 µM; confirmation average;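 mean of two retest wells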
PABP polyA inh retest – second read-out of PABP polyA inh, no call of its own (marks repeat the call); inhibition, %; compound at 20 µM; confirmation repeats;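 mean of two retest wells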
MT1-MMP act inh RFP – recorded beside MT1-MMP act inh, whose call it bears; RFP signal change, %; measured here: RFP expression control read;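 0 = vehicle wells; hits needed this value within 50% of zero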
Starred values were filed as active, the others as inactive; i = inactive; . = not tested or not shown; + = active, no number. Only part of the results is shown; count on the stated rates, not on these rows.

SMILES	Rce1 inh	MT1-MMP act inh	MT1-MMP act inh RFP	eIF4H FP inh	PABP polyA inh	HIV Env fusion	CSC inhib	Yeast UUG start	others
Cc1cc(NCCCN2CCOCC2)n2nc(C)c(-c3ccc(F)cc3)c2n1	i	3	1	4	-9	.	46	-14
CC(=O)Nc1cccc(-c2cc(NC=O)c3ncc(-c4cccc(C(C)=O)c4)n3c2)c1	.	-4	1	.	.	15	.	-12
CC(NC(=O)C1CCCN(S(=O)(=O)N2CCOCC2)C1)c1ccccc1 (stereo unspecified)	i	-1	3	-3	-6	-3	-7	-7
COCCn1c(SC(C)C(=O)NCC2CCCO2)nc2scc(-c3ccc(F)cc3)c2c1=O (stereo unspecified)	i	-4	-5	.	.	.	-18	-23
Cc1ccnc(NC(=O)CCCc2c[nH]c3ccccc23)c1	i	-5	1	88	-3	-8	-15	-13	eIF4H FP inh retest=-4;PABP polyA inh retest=16
CC(=O)Nc1ccc(S(=O)(=O)Nc2nnc(Cc3ccc(Cl)cc3)s2)cc1	.	0	3	-2	7	12	-8	0
CC1(C(=O)NCc2cccnc2)Cc2c(-c3cccc(C(F)(F)F)c3)ccnc2O1 (stereo unspecified)	.	-2	-12	.	.	34	.	-7
O=C(NCCCN1CCOCC1)c1cc2c(s1)CSC2	i	-1	-1	5	1	21	-8	-10
COc1cc2c(-c3ccc4[nH]ccc4c3)c(-c3ccc(C#N)cc3)oc(=O)c2cc1OC	.	-7	-7	.	.	37	38	-9
COc1ccc2c(CSc3nc4nc(C)cc(C)n4n3)cc(=O)oc2c1	i	-8	-2	-6	-10	.	-10	-8
COc1ccc(C(=O)NCC23C=CC(O2)C2C(=O)N(Cc4ccccc4)C(=O)C23)cc1 (stereo unspecified)	i	2	-5	3	7	28	-7	-15
CC1CCCC(NC(=O)C2CCN(S(=O)(=O)N3CCOCC3)CC2)C1C (stereo unspecified)	i	2	-3	-9	-12	-11	-10	14
CCOc1ccc(N2CC(C(=O)NCCN3C(=O)S/C(=C/c4cccnc4)C3=O)CC2=O)cc1 (stereo unspecified)	.	-6	-2	.	.	-13	.	2
COc1ccc(C(=O)Nc2cccc([N+](=O)[O-])c2)cc1Br	i	-5	-5	.	.	.	9	3
O=S(=O)(Nc1cccc(-c2ccc(N3CCCCCC3)nn2)c1)c1ccccc1F	i	0	-3	4	9	-73	16	.
COc1ccc(C2=NN(c3nc4ccccc4s3)C(=O)C2)cc1	i	4	2	9	3	-3	81*	.
Nc1ccc(C(=O)N/N=C/c2ccc(N3CCOCC3)s2)cc1	.	6	5	.	.	.	6	-16
CCn1c(SCC(=O)C(C)(C)C)nnc1-c1cnccn1	i	7	-2	1	-4	.	-9	-2
CCOc1ccc(NC(=O)CCSc2ccc3ccccc3n2)cc1	i	10	2	-5	43	.	7	-18
COCCN(Cc1nc(C(c2ccccc2)c2ccccc2)no1)C(C)C	i	-2	-1	2	-7	8	-17	-5

5 records picked at random from those above:
SMILES	Rce1 inh	MT1-MMP act inh	MT1-MMP act inh RFP	eIF4H FP inh	PABP polyA inh	HIV Env fusion	CSC inhib	Yeast UUG start	others
COCCN(Cc1nc(C(c2ccccc2)c2ccccc2)no1)C(C)C	i	-2	-1	2	-7	8	-17	-5
CCOc1ccc(N2CC(C(=O)NCCN3C(=O)S/C(=C/c4cccnc4)C3=O)CC2=O)cc1 (stereo unspecified)	.	-6	-2	.	.	-13	.	2
COc1ccc(C2=NN(c3nc4ccccc4s3)C(=O)C2)cc1	i	4	2	9	3	-3	81*	.
Cc1cc(NCCCN2CCOCC2)n2nc(C)c(-c3ccc(F)cc3)c2n1	i	3	1	4	-9	.	46	-14
CC1CCCC(NC(=O)C2CCN(S(=O)(=O)N3CCOCC3)CC2)C1C (stereo unspecified)	i	2	-3	-9	-12	-11	-10	14

Further records follow:
SMILES	Rce1 inh	MT1-MMP act inh	MT1-MMP act inh RFP	eIF4H FP inh	PABP polyA inh	HIV Env fusion	CSC inhib	Yeast UUG start	others
Cc1ccc(Nc2nc(C)cc(C)c2C(N)=O)c(C)c1	i	-1	-2	3	6	-6	-14	-1
CCOC(=O)NC1(C(F)(F)F)NC(=O)N(Cc2ccco2)C1=O (stereo unspecified)	i	-3	1	-7	-1	.	-11	-17
CC(=NNC(=O)c1cccc(S(=O)(=O)N2CCCC2)c1)c1ccccc1	.	-1	3	.	.	.	-13	-32
O=C(O)COc1ccc(/C=C/C(=O)c2ccc(C3CCCCC3)cc2)cc1	i	-4	-4	4	4	-48	.	-16
O=C(Cc1ccccc1)Nc1cccc([N+](=O)[O-])c1	i	2	2	4	0	6	1	1
CN1CCN(c2ccc(NC(=S)NC(=O)c3cccc4c(Br)cccc34)cc2)CC1	i	6	3	-19	-12	9	28	-14
COc1ccc(/C=N/Nc2nc(Nc3ccccc3)nc(N3CCCCC3)n2)cc1OC	i	8	-1	11	8	-127	6	-56
CCCc1nc2c(c(=O)c3ccccc3n2C)c(=O)n1C1CCCCCC1	i	-44	-36	1	4	-81	23	3
Cc1nc(NC2=NCN(CCCN3CCOCC3)CN2)nc2c(C)cccc12	.	-23	-8	0	35	.	5	-1
COc1ccc(CNC(=O)CN(c2ccc(OC)cc2)S(=O)(=O)c2c(C)nn(C)c2C)cc1	i	-3	1	2	-4	0	-10	.
c1ccc2c(c1)NC1(CCCC1)n1c-2nc2ccccc21	.	13	2	0	2	.	3	-24
CCN(CC)S(=O)(=O)c1cccc(NC(=O)COC(=O)c2cccs2)c1	i	5	8	-5	-4	-3	-27	-2
CC(=O)COc1cc(C)cc2oc(=O)c(C)c(C)c12	i	5	2	-2	-1	.	4	-9
Cc1ccc(OCc2nc(C#N)c(NCCCn3ccnc3)o2)cc1	i	-2	-3	-7	1	11	1	-15
COc1ccc(SCCC(=O)NCc2ccncc2)cc1	i	1	2	-9	4	-3	-11	.
N#CCC(=O)Nc1ccc(C(=O)NCCc2c[nH]c3ccccc23)cc1	i	-5	-3	-4	2	-2	-9	5
COc1ccc(NS(=O)(=O)c2cccc3nonc23)c(OC)c1	i	1	7	-3	-2	.	-7	-12
CC(NC(=O)OCc1ccccc1)C(=O)N1CC(O)CC1C(=O)O (stereo unspecified)	i	1	6	4	6	.	.	-17
COc1cccc(C(=O)NCC2(c3ccccc3)CCCC2)c1	i	2	0	-14	4	1	4	-8
CN(C)C(CNC(=O)C1CC(=O)N(c2cccc(C(F)(F)F)c2)C1)c1ccccc1 (stereo unspecified)	.	-3	-1	.	.	18	.	-1

Structural class: the entries above with a CF3 group (three)
SMILES	Rce1 inh	MT1-MMP act inh	MT1-MMP act inh RFP	eIF4H FP inh	PABP polyA inh	HIV Env fusion	CSC inhib	Yeast UUG start	others
CC1(C(=O)NCc2cccnc2)Cc2c(-c3cccc(C(F)(F)F)c3)ccnc2O1 (stereo unspecified)	.	-2	-12	.	.	34	.	-7
CCOC(=O)NC1(C(F)(F)F)NC(=O)N(Cc2ccco2)C1=O (stereo unspecified)	i	-3	1	-7	-1	.	-11	-17
CN(C)C(CNC(=O)C1CC(=O)N(c2cccc(C(F)(F)F)c2)C1)c1ccccc1 (stereo unspecified)	.	-3	-1	.	.	18	.	-1

Remaining list, next part
SMILES	Rce1 inh	MT1-MMP act inh	MT1-MMP act inh RFP	eIF4H FP inh	PABP polyA inh	HIV Env fusion	CSC inhib	Yeast UUG start	others
CCOc1ccc(C(C)=O)cc1COC(=O)c1cnc(Cl)c(Cl)c1	i	0	-2	8	0	-89	2	.
Cc1cc(C)c(OCC(=O)Nc2ccc(S(=O)(=O)N3CCCC3)cc2)c(C)c1	i	-4	-4	.	.	10	-11	-6
COc1ccccc1N(CC(=O)NC(C)(C)C)C(=O)C1CSC(=O)C1 (stereo unspecified)	.	2	0	1	-3	-42	-12	-18
c1ccc(-n2nnc3cnccc32)cc1	i	-2	2	-11	2	.	-10	5
COCCn1c(=S)[nH]c2sc3c(c2c1=O)CCCC3	i	2	0	5	7	2	7	-22
CC(C)Oc1ccc(CNC(=O)CC(c2ccccc2)c2cc(Cl)ccc2O)cc1 (stereo unspecified)	i	-29	-23	0	5	14	97*	.
N/C(=N\OC(=O)CCCOc1ccccc1)c1ccc([N+](=O)[O-])cc1	i	2	1	0	-8	9	2	.
Cc1cc(OCc2cc(C(=O)N3CCN(C)C(=O)[C@@H]3C)no2)cc(C)c1Cl	i	-3	-21	-8	4	8	23	-3
COc1cccc(-c2ocnc2C(=O)Nc2ccc(N3CCOCC3)cc2N2CCOCC2)c1	i	1	0	0	2	-9	6	-7
COCc1cc(C)n(CC(=O)NCc2ccccc2)c(=O)c1C#N	+	-1	6	-3	2	-10	-11	-32
O=S(=O)([N-]c1nc2ccccc2nc1-[n+]1ccccc1)c1ccc(Cl)cc1	i	0	-1	0	0	.	-7	-12
Cc1ccc2nc(N(CCCN(C)C)C(=O)c3ccc(Br)s3)sc2c1	i	2	2	-1	4	-40	-1	.
COc1ccc(-c2c(-c3ccccc3OC)sc3ccccc23)cc1C=O	.	2	1	.	.	-6	12	6
O=C(CCN1C(=O)c2ccccc2C1=O)Nc1ccc2c(c1)OCCO2	i	7	4	2	4	-69	6	-10
Cc1ccc2c(c1)N(S(=O)(=O)c1ccc(F)cc1)C(C(C)(C)C)CO2 (stereo unspecified)	i	-5	-7	-3	-6	-47	9	6
COc1cc2c(cc1OC)CN(CC(=O)Nc1ccc(F)cc1F)CC2	i	3	2	-6	-11	-2	-2	-20
COc1cc(OC)cc(C(=O)NCC(=O)N2CCN(c3ccc(O)cc3)CC2)c1	i	3	3	1	0	-7	1	-18
CCCn1c(=O)c(C(=O)OCC)c(O)c2cc(Br)ccc21	i	-2	5	0	-3	-9	-1	.
CN(C)C(=O)c1ccc(NC(=O)COC(=O)C2=COCCO2)cc1	i	1	1	.	.	-11	.	-19
O=C(O)COc1ccc(Br)cc1/C=C1/SC(=O)N(CC(=O)N2CCCC2)C1=O	i	-1	5	13	-4	.	-2	0

Overlap with the part before: 2 entries; new compounds follow.
SMILES	Rce1 inh	MT1-MMP act inh	MT1-MMP act inh RFP	eIF4H FP inh	PABP polyA inh	HIV Env fusion	CSC inhib	Yeast UUG start	others
CN(C)C(=O)c1ccc(NC(=O)COC(=O)C2=COCCO2)cc1	i	1	1	.	.	-11	.	-19
O=C(O)COc1ccc(Br)cc1/C=C1/SC(=O)N(CC(=O)N2CCCC2)C1=O	i	-1	5	13	-4	.	-2	0
COc1ccc(NC(=O)COC(=O)Cn2nnc3ccccc32)cc1	i	-3	1	0	-3	-5	.	.
COc1ccccc1C(=O)NC(=S)Nc1ccccc1N1CCCCC1	i	-1	4	-2	5	-4	67	-16
O=C(CSc1nnc(CNC(=O)c2cccs2)o1)Nc1cccc(C(F)(F)F)c1	i	4	0	14	-7	7	-7	4
C(=N\Nc1ccccn1)/c1ccc2c(c1)OCCO2	i	5	-1	2	21	-184	-21	-36

Molecules shown so far that have a Cl atom (five):
SMILES	Rce1 inh	MT1-MMP act inh	MT1-MMP act inh RFP	eIF4H FP inh	PABP polyA inh	HIV Env fusion	CSC inhib	Yeast UUG start	others
CC(=O)Nc1ccc(S(=O)(=O)Nc2nnc(Cc3ccc(Cl)cc3)s2)cc1	.	0	3	-2	7	12	-8	0
CCOc1ccc(C(C)=O)cc1COC(=O)c1cnc(Cl)c(Cl)c1	i	0	-2	8	0	-89	2	.
CC(C)Oc1ccc(CNC(=O)CC(c2ccccc2)c2cc(Cl)ccc2O)cc1 (stereo unspecified)	i	-29	-23	0	5	14	97*	.
Cc1cc(OCc2cc(C(=O)N3CCN(C)C(=O)[C@@H]3C)no2)cc(C)c1Cl	i	-3	-21	-8	4	8	23	-3
O=S(=O)([N-]c1nc2ccccc2nc1-[n+]1ccccc1)c1ccc(Cl)cc1	i	0	-1	0	0	.	-7	-12

High-throughput results deposited in PubChem BioAssay by several laboratories.
